# Bioassay records: PubChem, Broad Institute
# Vaccinia stage = blocks a specific stage of Vaccinia orthopoxvirus infection; Vaccinia-infected cells, mCherry/Venus stage reporter fluorescence; hits give low values; some inactives read as strong as hits; activity change (mCherry), % (concentration not given with the values); 0.01% of 89,000 active; AID 1053133;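 active = mCherry past -33% and 40 or more points under the early reporter, replicates agreeing; inconclusive = past -33% without that gap or agreement; tested in A549 cells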;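 note: scaled between vehicle wells and reference inhibitor wells; 23 nL library stock went into each well; one replicate is shown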
# Vaccinia stage Venus = second read-out of Vaccinia stage, no call of its own (marks repeat the call); activity change (Venus), %; measured here: Venus reporter, other viral stage;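 negative = less Venus signal; first of two replicates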
# Starred values were filed as active, the others as inactive; ? = inconclusive; . = no result given.
SMILES,Vaccinia stage,Vaccinia stage Venus
COc1ccccc1S(=O)(=O)N[C@H]1CC[C@H](CCn2cc(C3CCCCC3)nn2)O[C@@H]1CO,3,-2
COC(=O)C[C@H]1CC[C@H](NC(=O)c2ccccc2)[C@H](CO)O1,9,5
Cc1noc(C)c1NC(=O)N(C)C[C@H]1Oc2ccc(NS(=O)(=O)c3ccc(Cl)cc3)cc2CC(=O)N([C@@H](C)CO)C[C@@H]1C,4,-4
COCC#Cc1cnc2c(c1)C(=O)N([C@@H](C)CO)C[C@@H](C)[C@@H](CN(C)C(=O)c1cnccn1)O2,12,4
COC(=O)C[C@@H]1CC[C@@H]2[C@@H](COc3ccc(NC(=O)Nc4cccc(C#N)c4)cc3C(=O)N2C)O1,0,1
COc1ccc(NC(=O)N(C)C[C@H]2OCCCC[C@@H](C)Oc3ccc(NS(=O)(=O)c4ccc(C)cc4)cc3C(=O)N([C@@H](C)CO)C[C@@H]2C)cc1,?,.
COc1ccccc1CNC(=O)C[C@@H]1C[C@H]2c3cc(NS(C)(=O)=O)ccc3O[C@H]2[C@H](CO)O1,9,8
Cc1ccc(S(=O)(=O)Nc2ccc3c(c2)CC(=O)N([C@H](C)CO)C[C@H](C)[C@@H](CN(C)C(=O)NC(C)C)O3)cc1,2,3
C[C@@H]1CCCCO[C@H](CN(C)C(=O)Nc2ccccc2)[C@H](C)CN([C@@H](C)CO)C(=O)c2cc(NC(=O)c3ccncc3)ccc2O1,14,8
Cc1noc(C)c1NC(=O)Nc1ccc2c(c1)C(=O)N([C@H](C)CO)C[C@H](C)[C@H](CN(C)S(=O)(=O)c1cn(C)cn1)OCCCC[C@@H](C)O2,9,4
O=C(Nc1cc(F)ccc1F)N1C[C@H]2[C@@H](c3ccccc31)[C@@H](CO)N2Cc1ccncc1,-1,5
C[C@@H]1CN([C@H](C)CO)C(=O)c2cc(-c3ccncc3)cnc2O[C@H]1CN(C)C(=O)Cc1ccccn1,33,19

# Reformatted with two lines to a compound: 2 of the compounds above
# The line under a structure holds: Vaccinia stage | Vaccinia stage Venus
COC(=O)C[C@H]1CC[C@H](NC(=O)c2ccccc2)[C@H](CO)O1
  9 | 5
C[C@@H]1CN([C@H](C)CO)C(=O)c2cc(-c3ccncc3)cnc2O[C@H]1CN(C)C(=O)Cc1ccccn1
  33 | 19

# More results
SMILES,Vaccinia stage,Vaccinia stage Venus
C[C@@H]1CCCCO[C@H](CN(C)C(=O)C2CCCCC2)[C@H](C)CN([C@@H](C)CO)C(=O)c2cc(NC(=O)CCCCCC(=O)Nc3ccccc3N)ccc2O1,18,1
Cc1ccc(S(=O)(=O)N(C)C[C@@H]2Oc3ccc(N(C)C)cc3CC(=O)N([C@@H](C)CO)C[C@H]2C)cc1,5,2
C[C@H](O)C#Cc1cnc2c(c1)C(=O)N([C@H](C)CO)C[C@@H](C)[C@@H](CN(C)C(=O)CC1CC1)O2,5,8
COc1ccc(NC(=O)Nc2ccc3c(c2)CC(=O)N([C@H](C)CO)C[C@H](C)[C@H](CN(C)C(=O)NC2CCCCC2)O3)cc1,4,0
CCCC(=O)N1CC2(C1)CN(Cc1ccc(Cl)cc1)[C@H](CO)c1[nH]c3cc(OC)ccc3c12,-20,2
CCOC(=O)CCCCCC(=O)Nc1ccc2c(c1)C(=O)N([C@H](C)CO)C[C@H](C)[C@@H](CN(C)C(=O)Nc1ccccc1)OCCCC[C@@H](C)O2,1,3
C[C@@H]1CN([C@H](C)CO)C(=O)c2cccc(NS(=O)(=O)c3cccs3)c2O[C@H]1CN(C)Cc1ccc(C(F)(F)F)cc1,?,.
O=C(Nc1cccc(F)c1)N1CCCCN2[C@@H](CO)[C@H](c3ccc(-c4ccccc4F)cc3)[C@@H]2C1,?,.
C[C@H](CO)N1C[C@H](C)[C@H](CN(C)S(=O)(=O)c2cccc(F)c2)Oc2ncccc2C1=O,10,3
C[C@@H]1CN([C@H](C)CO)C(=O)c2cc(-c3ccccc3F)cnc2O[C@H]1CN(C)Cc1cccc(C(=O)O)c1,18,8
COc1ccc2c3c([nH]c2c1)[C@H](CO)N(C(=O)c1ccncc1)CC31CN(C)C1,15,10
C[C@H](CO)N1C[C@H](C)[C@H](CN(C)C(=O)Nc2cccc3ccccc23)Oc2ccc(NS(=O)(=O)c3ccccc3)cc2C1=O,35,28

# Looked up one by one from the entries so far:
SMILES,Vaccinia stage,Vaccinia stage Venus
O=C(Nc1cccc(F)c1)N1CCCCN2[C@@H](CO)[C@H](c3ccc(-c4ccccc4F)cc3)[C@@H]2C1,?,.
C[C@@H]1CN([C@H](C)CO)C(=O)c2cccc(NS(=O)(=O)c3cccs3)c2O[C@H]1CN(C)Cc1ccc(C(F)(F)F)cc1,?,.
CCCC(=O)N1CC2(C1)CN(Cc1ccc(Cl)cc1)[C@H](CO)c1[nH]c3cc(OC)ccc3c12,-20,2
C[C@H](O)C#Cc1cnc2c(c1)C(=O)N([C@H](C)CO)C[C@@H](C)[C@@H](CN(C)C(=O)CC1CC1)O2,5,8

# 6 neighbouring records from above:
SMILES,Vaccinia stage,Vaccinia stage Venus
C[C@@H]1CN([C@H](C)CO)C(=O)c2cccc(NS(=O)(=O)c3cccs3)c2O[C@H]1CN(C)Cc1ccc(C(F)(F)F)cc1,?,.
O=C(Nc1cccc(F)c1)N1CCCCN2[C@@H](CO)[C@H](c3ccc(-c4ccccc4F)cc3)[C@@H]2C1,?,.
C[C@H](CO)N1C[C@H](C)[C@H](CN(C)S(=O)(=O)c2cccc(F)c2)Oc2ncccc2C1=O,10,3
C[C@@H]1CN([C@H](C)CO)C(=O)c2cc(-c3ccccc3F)cnc2O[C@H]1CN(C)Cc1cccc(C(=O)O)c1,18,8
COc1ccc2c3c([nH]c2c1)[C@H](CO)N(C(=O)c1ccncc1)CC31CN(C)C1,15,10
C[C@H](CO)N1C[C@H](C)[C@H](CN(C)C(=O)Nc2cccc3ccccc23)Oc2ccc(NS(=O)(=O)c3ccccc3)cc2C1=O,35,28

# (next part)
SMILES,Vaccinia stage,Vaccinia stage Venus
CCC(=O)N1C[C@@H](C)[C@H](OC)CN(C)C(=O)c2cc(NC(=O)c3ccc(F)cc3)ccc2OC[C@H]1C,-5,-4
C[C@H](CO)N1C[C@H](C)[C@@H](CN(C)S(=O)(=O)c2ccccc2)OCCCC[C@H](C)Oc2ccc(NS(=O)(=O)c3ccc(Cl)cc3)cc2C1=O,?,.
COc1ccccc1CNC(=O)C[C@@H]1CC[C@@H](NC(=O)CN(C)C)[C@@H](CO)O1,17,16
C[C@H]1CN([C@@H](C)CO)C(=O)c2cccc(NC(=O)C3CCCCC3)c2O[C@H]1CN(C)C(=O)Nc1ccc(F)cc1,4,10
CO[C@@H](CN(C)S(=O)(=O)c1ccc(F)cc1)[C@@H](C)CN(Cc1ccccc1Cl)[C@@H](C)CO,-17,-11
C[C@@H](NC(=O)C[C@H]1CC[C@@H](NC(=O)C2CC2)[C@H](CO)O1)c1ccccc1,-1,1
COc1ccccc1-c1cnc2c(c1)C(=O)N([C@@H](C)CO)C[C@H](C)[C@H](CN(C)C(=O)c1cccnc1)O2,24,12
CC(C)(C)S(=O)N1Cc2cc(C(=O)N[C@@H]3CCN(Cc4ccccc4)C3)nc(-c3cccc(C#CCC4CCCC4)c3)c2[C@H]1CCO (stereo partly drawn),16,36
Cc1cccc(S(=O)(=O)N(C)C[C@@H]2OCc3cn(nn3)CCCC(=O)N([C@H](C)CO)C[C@H]2C)c1,8,8
C[C@H](CO)N1C[C@H](C)[C@H](CN(C)Cc2ccccc2)Oc2c(NC(=O)Nc3ccc(F)cc3)cccc2C1=O,?,.
Cc1ccc(-c2ccc3c(c2)O[C@@H](CN(C)C(=O)Nc2ccc(C(F)(F)F)cc2)[C@@H](C)CN([C@@H](C)CO)S3(=O)=O)cc1,?,.
C[C@@H]1CN([C@@H](C)CO)C(=O)c2cccc(NC(=O)NC3CCCCC3)c2O[C@H]1CN(C)S(=O)(=O)c1ccc(Cl)cc1,-15,-4
O=C(CN1CCOCC1)N1CCCCN2[C@H](C1)[C@@H](c1ccc(/C=C/c3ccccc3)cc1)[C@@H]2CO,-10,-5
CCCNC(=O)N1CCC2(CC1)CN(C(=O)Nc1ccc(F)cc1)[C@@H](CO)c1[nH]c3cc(OC)ccc3c12,12,-6
COCC#Cc1ccc2c(c1)O[C@H](CN(C)C(C)=O)[C@H](C)CN([C@@H](C)CO)S2(=O)=O,27,10
Cc1cccc(-c2ccc([C@H]3[C@H]4CN(C(=O)Cc5ccccn5)CC(=O)N4[C@H]3CO)cc2)c1,-11,-9
C[C@@H]1CN([C@H](C)CO)C(=O)c2cccc(NS(=O)(=O)c3ccc(Cl)cc3)c2O[C@H]1CN(C)S(=O)(=O)c1ccc(Cl)cc1,10,9
C[C@@H]1CN([C@H](C)CO)S(=O)(=O)c2ccc(C3=CCCC3)cc2O[C@@H]1CN(C)C(=O)C1CCCCC1,-12,-13
C[C@@H]1CN([C@H](C)CO)C(=O)CCCn2nncc2CO[C@H]1CN(C)C(=O)Nc1cccc(Oc2ccccn2)c1,13,12
COc1cccc(-c2ccc3c(c2)[C@H]2[C@H](CCN2C(=O)C2CC2)[C@H](CO)N3)c1,-33,-25
C[C@@H]1CCCCO[C@H](CN(C)S(=O)(=O)c2cn(C)cn2)[C@@H](C)CN([C@@H](C)CO)C(=O)c2cc(NC(=O)Nc3cccc4ccccc34)ccc2O1,33,15
O=C(C[C@H]1C=C[C@@H](NS(=O)(=O)c2ccc(F)cc2)[C@@H](CO)O1)NCc1ccc(Cl)c(Cl)c1,?,.
O=C(O)C[C@@H]1C[C@H]2c3cc(NC(=O)Nc4ccc(C(F)(F)F)cc4)ccc3O[C@H]2[C@H](CO)O1,5,5
O=C1CN(S(=O)(=O)c2cccc(F)c2)C[C@@H]2[C@H](c3ccc(C4=CCCC4)cc3)[C@H](CO)N12,11,14
O=C(C[C@H]1CC[C@H]2[C@@H](COC[C@H](O)CN2C(=O)c2ccccc2F)O1)NCc1ccc(F)cc1,17,7
C[C@H](O)C#Cc1cnc2c(c1)C(=O)N([C@@H](C)CO)C[C@H](C)[C@@H](CN(C)Cc1cccc(F)c1)O2,2,1
CC(C)NC(=O)Nc1ccc2c(c1)CC(=O)N([C@H](C)CO)C[C@H](C)[C@H](CN(C)C(=O)Nc1ccc3c(c1)OCO3)O2,15,9
C[C@H](CO)N1C[C@H](C)[C@@H](CN(C)C(=O)Nc2ccc(C(F)(F)F)cc2)Oc2ccc(NS(=O)(=O)c3ccc(Cl)cc3)cc2CC1=O,-18,-10
C[C@@H]1CN([C@@H](C)CO)C(=O)Cc2cc(NS(=O)(=O)c3ccc(Cl)cc3)ccc2O[C@@H]1CN(C)Cc1ccc2c(c1)OCO2,-2,-4
N#C[C@H]1[C@@H](c2ccc(C3=CCCCC3)cc2)[C@H](CO)N1C(=O)c1ccccn1,2,7
COCC(=O)N(C)C[C@H]1Oc2cc(-c3ccccc3)ccc2S(=O)(=O)N([C@@H](C)CO)C[C@@H]1C,2,-3
C[C@@H]1CN([C@H](C)CO)C(=O)c2cccc(NC(=O)C3CC3)c2O[C@@H]1CN(C)CC1CCCCC1,9,10
C[C@H]1CN([C@@H](C)CO)S(=O)(=O)c2ccc(-c3cccc(C#N)c3)cc2O[C@H]1CN(C)C(=O)c1ccc(F)cc1,-4,0
COc1cc(CN2CC3(CN(C(=O)Nc4cccc(F)c4)C3)c3c(n(C)c4cc(OC)ccc34)[C@H]2CO)cc(OC)c1,-22,-27
COCC#Cc1cnc2c(c1)C(=O)N([C@@H](C)CO)C[C@@H](C)[C@H](CN(C)C(=O)C1CC1)O2,30,3
CC(C)CC#Cc1ccc2c(c1)O[C@@H](CN(C)Cc1ccccc1F)[C@H](C)CN([C@@H](C)CO)S2(=O)=O,-6,-8
C[C@@H]1CN([C@H](C)CO)C(=O)c2cc(NS(=O)(=O)c3ccc(F)cc3)ccc2O[C@H]1CN(C)S(=O)(=O)c1ccc(F)cc1,11,3
CO[C@H]1CN(C)C(=O)c2ccc(NC(=O)C3CCOCC3)cc2OC[C@@H](C)NC[C@H]1C,21,13
C[C@H]1CN([C@@H](C)CO)C(=O)c2cc(C#CC3CCCCC3)cnc2O[C@@H]1CN(C)S(=O)(=O)c1ccccc1,?,.
COc1ccc(S(=O)(=O)N2CCC3(CC2)CN(Cc2ccncc2)[C@H](CO)c2[nH]c4cc(OC)ccc4c23)cc1,15,16
O=C(c1cccnc1)N1CC2(C1)[C@H](c1ccccc1)[C@@H](CO)N2Cc1ccccc1,5,9
CC(C)NC(=O)N1C[C@@H]2[C@H](c3ccccc31)[C@@H](CO)N2Cc1ccccn1,9,7
CC(=O)N1CC2(C1)[C@H](c1ccc(-c3ccc(C#N)cc3)cc1)[C@@H](CO)N2C(C)=O,-2,2
CCNC(=O)[C@@H]1[C@@H](CO)[C@@H]2Cn3c(ccc(C4=CCCCC4)c3=O)[C@H]1N2Cc1ccncc1,1,8
COc1ccc(NC(=O)Nc2ccc3c(c2)C(=O)N([C@H](C)CO)C[C@H](C)[C@@H](CN(C)Cc2ccc(Oc4ccccc4)cc2)O3)cc1,14,29
C[C@@H]1CN([C@@H](C)CO)C(=O)c2cccc(NS(=O)(=O)c3cccs3)c2O[C@@H]1CN(C)C(=O)NC1CCCCC1,-14,-21
Cc1noc(C)c1NC(=O)Nc1cccc2c1O[C@@H](CN(C)Cc1ccc(Oc3ccccc3)cc1)[C@H](C)CN([C@@H](C)CO)C2=O,-25,-25
C[C@@H]1CN([C@H](C)CO)C(=O)c2cc(NC(=O)Nc3ccccc3)ccc2O[C@@H]1CN(C)S(=O)(=O)c1ccccc1,-10,-2
COc1ccc(-c2ccc3n(c2=O)C[C@@H]2[C@@H](CO)[C@H](C(=O)NC4CCC4)N(S(C)(=O)=O)[C@H]32)cc1,-3,5
Cc1ccc(S(=O)(=O)N2CC[C@@H]3[C@H]2c2cc(Br)ccc2N[C@@H]3CO)cc1,-27,-27

# Not all compounds are listed. The share of hits here may be higher or lower than overall.
